Source: PubChem BioAssay (National Center for Advancing Translational Sciences (NCATS))
PINK1 modulator: changes PINK1 expression | actives 0.2% (n = 410,000) | PINK1 immunofluorescence, high-content cytometry, 24 h | Potency, µM (top dose mostly 76.6 µM), for inactives: at the top dose activation (PINK1 increase), hits mostly activators | AID 624263; active = well fitted activation curve with a large enough effect; inconclusive = small, poorly fitted or top-dose-only effect; inactive = flat fitted curve, though single readings scatter; cell line not stated here;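 further: potency means the concentration at half of the fitted maximal effect; % of control where 0% means no effect; nearly all actives have a fitted effect of over 65% in size; a mitochondrial uncoupler was the plate control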
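PINK1 protein, normally rapidly degraded, was detected by immunofluorescence after 24 hour compound treatment of a stable cell line. Titration data (5 concentrations) came from laser-scanning cytometry, with CCCP-treated wells as controls.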
CtBP-E1A blk: blocks the CtBP interaction with E1A; AlphaScreen GST-E1A/His-CtBP binding, 1536-well; stronger effect = lower value; control for the full effect not named in the record; activity change, % (test concentration not listed); actives 0.49% (n = 340,000); AID 651724; in the data active means activity change below about -65%; inconclusive means about -30% to -65%; inactive means above about -30%; further: on the % scale 0 is the no-effect control and ±100 the full control effect; compound concentration not given in the record
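In 5 uL wells, 23 nL compound meets equimolar GST-E1A and His-CtBP (5X stock 125 nM each) for 2 h, 37 °C. Beads (5X, 50 ug/mL) then 1 h, 37 °C, dark.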
TRPML1 ag: agonists of human TRPML1 channel | Q9GZU1 | TRPML1-expressing cells, Ca2+ dye fluorescence, FDSS; host cell line not named in the record; reference of the full effect not given here | activation, % (no concentration beside the values) | actives 0.12% (n = 410,000); in the data active = activation above about 50%; inconclusive = about 30% to 50%; inactive = below about 30%; further: 0% is about no effect; the text of the record puts the active cut at 80%
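In this qHTS format, compounds were pin-transferred onto Ca8-dye-loaded TRPML1-DL cells induced with Tet overnight, and intracellular Ca2+ fluorescence was recorded kinetically for 110 s after a 10 s baseline. A subsequent 4uM final 54-4 (EC80) addition followed by a second 110 s read served as the antagonist phase.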
Six1-Eya2 blk: Six1/Eya2 interaction inhibition | Q15475+O00167 | AlphaScreen GST-Six1/His-Eya2 binding, biochemical; stronger effect = lower value; control for the full effect not named in the record | activity change, % (concentration not given with the values) | actives 0.56% (n = 360,000) | AID 651725; in the data active = activity change below about -65%; inconclusive = about -30% to -65%; inactive = above about -30%; further: on the % scale 0 is the no-effect control and ±100 the full control effect
Target sequence (O00167 whole entry, looked up): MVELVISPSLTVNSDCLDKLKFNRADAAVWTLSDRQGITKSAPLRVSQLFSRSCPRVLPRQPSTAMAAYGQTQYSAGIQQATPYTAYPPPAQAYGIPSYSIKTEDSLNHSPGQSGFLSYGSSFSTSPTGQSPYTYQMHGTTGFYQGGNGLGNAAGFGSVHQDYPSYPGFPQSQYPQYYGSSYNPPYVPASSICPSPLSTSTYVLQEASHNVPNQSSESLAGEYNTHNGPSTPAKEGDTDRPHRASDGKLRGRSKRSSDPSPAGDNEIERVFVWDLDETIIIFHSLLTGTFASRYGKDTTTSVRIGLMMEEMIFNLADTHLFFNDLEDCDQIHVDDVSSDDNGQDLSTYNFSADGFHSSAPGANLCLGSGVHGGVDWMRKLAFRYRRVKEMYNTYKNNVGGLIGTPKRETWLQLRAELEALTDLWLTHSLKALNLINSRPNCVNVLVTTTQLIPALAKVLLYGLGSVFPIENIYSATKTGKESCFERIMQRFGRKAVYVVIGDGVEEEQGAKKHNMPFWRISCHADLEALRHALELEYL
Target sequence (Q15475 whole entry, looked up): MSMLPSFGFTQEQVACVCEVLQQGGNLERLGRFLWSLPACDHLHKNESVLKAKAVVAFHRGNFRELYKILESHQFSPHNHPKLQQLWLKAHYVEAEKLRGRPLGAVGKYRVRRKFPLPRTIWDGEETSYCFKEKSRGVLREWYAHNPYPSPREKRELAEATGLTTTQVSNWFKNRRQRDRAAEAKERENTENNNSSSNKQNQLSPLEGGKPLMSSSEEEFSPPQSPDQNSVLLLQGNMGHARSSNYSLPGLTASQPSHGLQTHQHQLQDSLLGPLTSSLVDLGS
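GST-Six1 + His-Eya2 (5X stock: 250/500 nM); Tris pH 8.0, 300 mM NaCl, 0.05% BSA, 0.02% Tween 20; GSH donor/Ni acceptor beads; 1 h 37 °C dark; AlphaScreen readout.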
D2 agonist: agonists of human D2 dopamine receptor (beta-arrestin) | P14416 | DiscoveRx PathHunter D2 beta-arrestin, luminescence, 90 min; 100% = 57 uM dopamine signal | activation, % (test concentration not listed) | actives 0.084% (n = 360,000) | AID 624465; in the data active = activation above about 40%; inconclusive = about 15% to 40%; inactive = below about 15%; further: compound concentration not given in the record; the text of the record calls up to 30% inactive
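Agonist mode: compounds alone added to overnight-plated D2 PathHunter cells for 90 min at 37 C, with 57 uM final dopamine (EC100) defining full response. Beta-arrestin recruitment detected by chemiluminescent reagent, read after 1 h at ambient temperature.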
D2 PAM: human D2 receptor positive allosteric modulation | P14416 | potentiation, % (test concentration not listed) | actives 0.23% (n = 360,000) | DiscoveRx D2 beta-arrestin cells, luminescence, 90 min; 100% = 57 uM dopamine signal; active = potentiation of 50% or more; inconclusive = 30% to 50%; inactive = 30% or less;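 further: compound concentration not given in the record; tested on top of an EC20 dose of dopamine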
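D2 cells co-treated with compound plus 50 nM dopamine (EC20) for 90 min at 37 deg C to detect potentiation. Beta-arrestin recruitment was read as enzyme-fragment luminescence after 1 h at ambient temperature. Full response was set by 57 uM dopamine.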
The depositor's hits bear a star; u = inconclusive; x = not tested or not shown; & = joins results of further samples; [ ] = dose if it differs, or a comment.

SMILES	PINK1 modulator	CtBP-E1A blk	TRPML1 ag	Six1-Eya2 blk	D2 agonist	D2 PAM
CN(C)S(=O)(=O)N1CCc2ccccc2C1	-0.1%	16	0.0	1	-2.8	-4
COc1nccc(C(F)(F)F)c1C(=O)NC(=O)Nc1ccccc1	0.8%	x	1.7	1	0.9	-1
COc1ccc(OC)c(CN2C(=O)c3ccccc3C2c2nnnn2-c2c(C)cccc2C)c1 (stereo not drawn)	0.3%	0	4.1	-1	x	x
CC(C)n1cnc2c(Nc3ccc(C(=O)O)cc3)nc(Cl)nc21	1.7%	6	-0.3	1	-1.9	1
CC(C)(C)CC(=O)Nc1ccc(C(N)=O)cc1	x	-5	0.1	-1	1.1	-13
CCOC(=O)C1=C(C)NC(C)=C(C(=O)OCC)C1C(=O)OCC(=O)N1c2ccccc2CC1C (stereo not drawn)	1.7%&-0.3%	4&3	-1.1&1.1	-7&2	6.2&1.0	-6&-18
CCc1nc2ccc(C(=O)Nc3ccc(NC(C)=O)cc3)cc2nc1CC	7.9%	0	-0.3	3	-3.5	-9
Cc1cccc(N2C(=O)c3cccc4c(N(C)CCO)ccc(c34)C2=O)c1	-0.5%[38.3 µM]	20	77*	18	-9.9	-7
Cc1c(C(=O)N2CCOCC2)sc2ncnc(N3CCc4ccccc4C3)c12	0.5%	5	-1.1	-2	-1.8	5
CCOC(=O)c1ccc(-n2c(CN3CCC(C(N)=O)CC3)nc3ccc([N+](=O)[O-])cc3c2=O)cc1	-1.6%	-7	1.0	1	0.9	-2
Cc1cc(C)nc(NC(=O)/C=C/c2ccc(Cl)cc2)n1	-1.1%	-1	-0.7	-1	-0.7	-9
COc1ccc2[nH]cc(CCNC(=S)NCCc3ccccc3)c2c1	1.1%	-24	0.8	-30	2.4	-6

An excerpt of these results, as a markdown table:
| SMILES | PINK1 modulator | CtBP-E1A blk | TRPML1 ag | Six1-Eya2 blk | D2 agonist | D2 PAM |
| --- | --- | --- | --- | --- | --- | --- |
| CC(C)n1cnc2c(Nc3ccc(C(=O)O)cc3)nc(Cl)nc21 | 1.7% | 6 | -0.3 | 1 | -1.9 | 1 |
| CC(C)(C)CC(=O)Nc1ccc(C(N)=O)cc1 | x | -5 | 0.1 | -1 | 1.1 | -13 |
| CCOC(=O)C1=C(C)NC(C)=C(C(=O)OCC)C1C(=O)OCC(=O)N1c2ccccc2CC1C (stereo not drawn) | 1.7%&-0.3% | 4&3 | -1.1&1.1 | -7&2 | 6.2&1.0 | -6&-18 |
| CCc1nc2ccc(C(=O)Nc3ccc(NC(C)=O)cc3)cc2nc1CC | 7.9% | 0 | -0.3 | 3 | -3.5 | -9 |
| Cc1cccc(N2C(=O)c3cccc4c(N(C)CCO)ccc(c34)C2=O)c1 | -0.5%[38.3 µM] | 20 | 77* | 18 | -9.9 | -7 |

Next part:
SMILES	PINK1 modulator	CtBP-E1A blk	TRPML1 ag	Six1-Eya2 blk	D2 agonist	D2 PAM
Cc1noc(NC(=O)c2ccc(Cl)cc2)c1Cl	1.1%	-15	0.1	17	9.5	0
CCc1c(O)nc(SCc2ccccc2)n(C(C)CC)c1=O (stereo not drawn)	0.8%[38.3 µM]	-5	0.1	-1	-3.0	1
CCCc1nnc(NC(=O)CN2CCN(C)CC2)s1	0.5%	8	2.2	4	1.2	u
Cc1ccccc1NC(=O)Cc1nc(COC(=O)COc2ccccc2C(C)C)cs1	0.0%	x	-1.3	7	-3.0	-1
CCCCCCCCN1[C@@H](CC(=O)OCC)c2ccc(C(F)(F)F)cc2S1(=O)=O	6.1%	39	1.3&2.8	30	-0.7	-8
O=C(Nc1ccccc1Cl)Nc1ccnn1C1CCN(C(=O)c2cscn2)CC1	1.0%	-4	0.2	8	-4.2	-4
Cc1ccc(C)c(N2CCN(C(=O)C3CCCN(S(=O)(=O)c4c(C)[nH]c(=O)[nH]c4=O)C3)CC2)c1 (stereo not drawn)	1.3%	-1	-0.3	-9	-0.1	1
C=C(C)CSc1nnc(-c2cccc(Cl)c2)n1N	-2.2%	-2	0.4	6	0.5	2
Fc1ccc(-n2cc(CNCCc3cccnc3)c(-c3ccccc3Cl)n2)cc1	0.7%	-10	-0.9	-4	-5.3	-47
COc1ccc(OC)c(CNc2ncc(-c3cccc([N+](=O)[O-])c3)n2C)c1	0.9%	x	x	-13	6.6	-68
CSc1nc(=O)n(CCC#N)nc1SC	3.2%	-6	-0.2	5	2.6	-3
CCOC(=O)N1CCN(C(=O)Nc2ccc3nc(-c4ccccn4)c(-c4ccccn4)nc3c2)CC1	-1.7%	4	3.7	-3	-0.5	16
CC/C(=N\NC(=O)CNC(=O)/C=C/c1ccc(OC)cc1)c1ccccc1	3.8%	0	0.6	0	-1.1	0
COc1ccc(Nc2nc3c(C)cccc3cc2C#N)c(OC)c1	u	4	0.5	-1	-0.1	-5
Cc1onc(-c2ccccc2)c1C(=O)N/N=C/c1ccc([N+](=O)[O-])s1	6.6%	-2	1.1	-19	5.3	24
CC(C)c1cc(C(=O)N2CCCC(CCC(=O)N3CCN(c4ccccn4)CC3)C2)no1 (stereo not drawn)	1.3%	6	-0.5	-3	0.8	5
CC12CCC(=O)N1C(C(=O)Nc1nc(-c3ccccc3)cs1)CS2 (stereo not drawn)	1.4%	-4	-0.7	1	0.1	13
O=C(CN1C(=O)C2CCCN2c2ncc(Cl)cc21)NCc1ccc2c(c1)OCO2 (stereo not drawn)	-0.5%	4	-0.9	-3	-3.0	-21
Cn1c(N)c(C(=O)COC(=O)CCC2CCCCC2)c(=O)n(C)c1=O	-1.4%	-4	-0.9	-3	-3.0	-13
CCOc1cc(C(=O)N2CCCC2)cc(OCC)c1OCC	-0.8%	0	3.7	3	-1.4	0
COc1ccc(OCC(O)CN2C(=O)c3ccccc3C2=O)cc1 (stereo not drawn)	0.7%	10	-2.0	2	-4.0	-7
Cc1nn(Cc2ccccc2)c(Cl)c1/C=C/C(=O)OCC(=O)NC(C)C(C)C (stereo not drawn)	-1.3%	x	3.0	8	1.0	2
COc1ccc(C2CC(c3ccccc3)=NN2C(=O)CN2CCN(Cc3ccccc3)CC2)cc1 (stereo not drawn)	-0.3%	0	1.6	-6	-3.8	-25
CCCCN=Cc1sc2ccc(OCC)cc2c1O	-2.1%	-14	1.3	-14	-5.0	-40
Cc1ccc2nc(N/C(=N/S(=O)(=O)c3ccc(F)cc3)c3ccccc3)sc2c1	5.6%	9	-0.4	-4	-4.4	-17
CCCn1c(N)c(N(CCOC)C(=O)c2cc3c(s2)CCCCC3)c(=O)[nH]c1=O	-0.4%	8	-0.1	0	0.5	11
CCOc1nc2ccccc2nc1NS(=O)(=O)c1ccc(Cl)cc1	-3.1%	-4	0.2	-4	-0.2	-1
Cc1[nH]c(C)c(S(=O)(=O)Nc2cccc(Cl)c2C)c1C(=O)N1CCCCC1	-0.3%	1	-0.1	-1	-2.0	-5
COc1cc(/C=N/NC(=O)c2cccc(S(=O)(=O)N3CCOCC3)c2)cc(OC)c1O	-0.4%	-16	0.8	-5	2.9	-1
CS(=O)(=O)c1ccc(Cl)c(NC(=O)Cc2c(Cl)cccc2Cl)c1	-1.2%	5	-0.7	9	-5.7	0
CN1CCN(c2ccccc2NC(=O)c2cc3c(s2)-c2ccccc2OC3)CC1	2.0%	-79*	0.6	-1	-3.9	-20
COc1ccc(Cl)cc1NC(=O)c1nnn(CC(=O)Nc2ccc3c(c2)OCO3)c1N	5.4%	x	-1.2	0	1.3	-10
Cc1n[nH]c(=S)n1-c1ccc(Cl)cc1	-0.6%	-3	0.9	10	-10	-5
CCOC(=O)C1=C(O)C(=O)N(Cc2cccnc2)C1c1ccc(OC)cc1 (stereo not drawn)	-3.2%	4	-0.5	6	-2.6	3
CC1CC(C)CN(CCCNS(=O)(=O)c2ccc3c(c2)oc(=O)n3C)C1 (stereo not drawn)	1.8%	-1	2.9	-4	-2.3	-16
O=C(O)c1ccccc1C(=O)c1ccc2oc(=O)[nH]c2c1	1.9%	0	0.7	9	0.6	10
Cc1nc2c(OCCOc3ccccc3)cccn2c1N(C)C(=O)CCC1CCCC1	-0.1%	0	0.0	4	8.2	0
CC(C)NC(=O)C1(C)CCN1C/C=C/c1ccccc1 (stereo not drawn)	0.3%	-1	0.0	0	-6.3	-11
Cc1cc(NC(=O)CSc2cc(Cl)ccc2Cl)n(-c2ccccc2)n1	1.1%	x	3.5	22	-2.2	0
OCC1(Cc2ccc(Cl)cc2)CCN(CCCc2ccccc2)CC1	1.2%	1	0.7	-1	41*	0
CC1(C(=O)NS(=O)(=O)c2ccccc2Cl)CCN1C(=O)c1ccccc1 (stereo not drawn)	-0.6%	10	-0.2	-4	1.5	0
Cc1ccc(-c2csc(NC(=O)C3CSC4(C)CCC(=O)N34)n2)cc1 (stereo not drawn)	-1.2%	13	-0.8	-1	-3.1	-17
Cc1ccccc1C(=O)N1CCN(c2ccccn2)CC1	-1.1%	3	0.7	3	-0.5	10
CCOc1ccc2oc(C(=O)N(Cc3nnc(-c4ccccc4Cl)o3)C3CC3)c(C)c2c1	2.4%	-1	-0.2	-10	-2.1	13
COc1ccc(-c2noc(CN(C)C(=O)Nc3ccccc3)n2)cc1	1.6%	x	1.2	-6	3.9	-11
Cc1cc(NC(=O)CCOc2ccc(F)cc2)no1	-0.9%	10	-0.4	-1	-6.0	-7
CC(C)NC(=O)N1CCN(c2ccncc2S(=O)(=O)N2CCCCC2)CC1	1.6%	7	-0.2	2	2.4	8
O=S(=O)(c1ccccc1)c1nnn2c1nc(NC1CCN(Cc3ccccc3)CC1)c1ccccc12	11%	-2	-0.6	-2	-0.5	-9
Cc1cc(=O)n(CCO)c(O)c1C#N	0.3%	-8	1.3	-1	11	52*
COCc1ccc(CN2CCC(n3nccc3NC(=O)CCCc3ccccc3)CC2)o1	-0.7%	-2	-0.8	-3	-2.0	-14
CSc1ccc(CNCc2ccc3c(c2)OCO3)cc1	0.9%	-3	0.4	-4	-0.7	-13
CCc1nc2ccc(C(=O)Nc3cccc(NS(C)(=O)=O)c3)cn2c1N(CC)Cc1cccc(Br)c1	7.9%	-10	0.4	-18	-3.8	-1
COc1ccc(NCc2nnc(SCc3ccc(Cl)cc3)n2-c2ccccc2)cc1	u	-27	0.1	u	-5.4	-26
Cn1ncc([N+](=O)[O-])c1C(=O)Nc1cccc(Cl)c1	1.4%	x	x	0	2.0	1
Cc1ccc(C(=O)COC(=O)CN2C(=O)C3C4CCC(C4)C3C2=O)cc1C (stereo not drawn)	0.3%	3	-0.6	1	-0.6	-10
Cc1occc1-c1nnc(SCC(=O)NC2CCCCC2)o1	0.4%	x	-0.3	4	-2.2	3
CC(C)=CCC1=C(OCC(=O)O)C(=O)c2ccccc2C1=O	0.8%	x	0.6	-1	u	0
CCc1nnc(NC(=O)CSc2ncc(-c3ccccc3)[nH]2)s1	3.0%[38.3 µM]	-3	0.6	-1	-3.2	-5
CC(C(=O)Nc1sc2c(c1C(=O)NCC1CCCO1)CCC2)N1C(=O)c2ccccc2C1=O (stereo not drawn)	-1.5%	-22	-0.5	-7	-2.8	-17
Cc1ccccc1OCC(=O)NNC(=O)c1ccc(-n2cncn2)c([N+](=O)[O-])c1	0.6%	1	-0.2	-4	-9.5	-19
